PV pol inh: inhibitors of poliovirus RNA polymerase binding and polymerization; P03300; poliovirus polymerase elongation, fluorescence polarization; hits give low values; % elongation, % (compound at 16.7 µg/mL); hit rate 0.66% among 150,000; AID 588519; in the data active = % elongation below about 90%; also: some results filed as inactive read as strong as hits
Target sequence (P03300 1749-2209 limits assumed): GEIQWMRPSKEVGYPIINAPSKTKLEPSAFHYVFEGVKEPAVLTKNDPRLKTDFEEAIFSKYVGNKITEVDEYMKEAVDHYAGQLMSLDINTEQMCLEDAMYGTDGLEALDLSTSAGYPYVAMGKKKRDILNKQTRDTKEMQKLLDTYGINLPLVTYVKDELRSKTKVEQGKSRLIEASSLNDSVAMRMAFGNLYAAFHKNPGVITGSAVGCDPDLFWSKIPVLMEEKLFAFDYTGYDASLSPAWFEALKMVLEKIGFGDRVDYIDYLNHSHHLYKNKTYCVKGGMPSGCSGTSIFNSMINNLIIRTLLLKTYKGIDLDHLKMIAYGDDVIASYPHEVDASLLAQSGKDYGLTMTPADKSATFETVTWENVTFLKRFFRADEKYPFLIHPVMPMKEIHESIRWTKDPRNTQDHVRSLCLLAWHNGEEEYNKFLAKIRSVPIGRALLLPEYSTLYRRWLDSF
Mtb MenB inh: Mtb MenB enzyme inhibition. P9WNP5. MenB enzyme assay, absorbance read-out; some hits fall short of the stated cut. inhibition, %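 (about 12 µg/mL by stock and volumes)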. hit rate 0.43% among 100,000. AID 540299;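 active = mean of two replicates above 30%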;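 also: 0% = no compound and 100% = wells with inactive enzyme; the first replicate is given; strong numbers were not always called active; inactives centre near -10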
MbtI inh: MbtI salicylate synthase inhibition; P9WFX0; purified MbtI enzyme, fluorescence intensity read-out; inhibition, %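 (about 17 µg/mL by stock and volumes)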; hit rate 0.89% among 100,000; AID 493033;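 active = above 50% in both replicates, above 80% if mildly self-fluorescent; inactive = the rest, strongly fluorescent compounds included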;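 also: 0% = mean of negative and 100% = mean of positive controls; one replicate is shown; some compounds called inactive have numbers as strong as hits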
Target sequence (P9WFX0 whole entry, looked up): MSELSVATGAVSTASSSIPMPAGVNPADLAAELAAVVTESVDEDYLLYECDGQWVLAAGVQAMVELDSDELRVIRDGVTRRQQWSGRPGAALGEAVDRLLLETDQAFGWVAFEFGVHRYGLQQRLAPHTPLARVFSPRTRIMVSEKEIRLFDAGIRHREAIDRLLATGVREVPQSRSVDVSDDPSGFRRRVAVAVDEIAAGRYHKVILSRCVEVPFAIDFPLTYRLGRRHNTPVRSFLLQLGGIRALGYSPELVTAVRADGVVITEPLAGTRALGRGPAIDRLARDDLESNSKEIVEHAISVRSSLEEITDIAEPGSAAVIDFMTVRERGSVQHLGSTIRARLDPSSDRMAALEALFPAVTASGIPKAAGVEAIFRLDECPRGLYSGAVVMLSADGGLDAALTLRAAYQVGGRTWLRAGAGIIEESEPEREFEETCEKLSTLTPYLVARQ
PV pol inh intensity: also measured in PV pol inh; calls as there; % elongation; measured here: total intensity read-out; formula for this scale not given here;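 total fluorescence in place of polarization; lower means less elongation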
* hit, by the source's call; i = inactive; nt = not tested or not shown; & = joins results of further samples.

SMILES	PV pol inh	PV pol inh intensity	Mtb MenB inh	MbtI inh
COc1cccc(NC(N)=O)c1	103	105	-18	-11
CCOC(=O)CC1Sc2ccccc2N=C1SCC(=O)Nc1cccc(C(F)(F)F)c1 (stereo not given)	105	112	-33	2
Cc1ccc(NC(=O)Cc2n[nH]c(=O)c3ccccc23)c(O)c1	103	99	-14	-6
CCC(C)(C)NC(=O)Cc1ccc(F)cc1	100	103	5	-7
CCCNC(=O)CCn1nc(C)c2c(C)n(-c3ccccc3)nc2c1=O	104	103	5	-23
COc1ccc(S(=O)(=O)Nc2ccc(C(=O)NCC(=O)O)cc2)cc1	101	99	-9	12
CC(C)(C)c1cc(NC(=O)c2ccc3c(c2)S(=O)(=O)c2ccccc2C3=O)on1	105	100	-23	-11
CN(C(=O)c1cccc(N)c1)C1CCCCC1	105	101	2	0
CC1CN(C(=O)c2ccc(C#N)cc2)CC(C)O1 (stereo not given)	100	105	17	2
CC(=O)SCC(C)C(=O)O (stereo not given)	103	104	-18	1
CC(NC(=O)c1cc(=O)[nH]c2ccc(Br)cc12)c1ccc2c(c1)OCCO2 (stereo not given)	102	105	-1	4
CCOc1ccc(C(=O)NCC(=O)n2nc(C)cc2C)cc1	103	105	-8	3
O=C1CN(C(=O)COc2ccccc2)c2ccccc2N1	102	102	-14	2
CCNc1nc2ccccn2c(=O)c1/C=C1\SC(=S)N(Cc2ccco2)C1=O	120	171	2	13
CCCn1c(=O)[nH]c(=O)c2c(C(=O)O)cc(-c3ccccc3)nc21	105	107	-2	101
Cc1nnc(SCCCCSc2nnc(C)n2N)n1N	100	102	-10	-5
Cc1ccccc1-c1nnc(N(C)C(=O)C2CC2)s1	103	101	-27	7
CC1OC(OC2/C=C/C=C/C=C/C=C/CC/C=C/C=C/[C@H](C)[C@@H](O)[C@@H](C)[C@H](C)OC(=O)CC(O)CC(O)CC(O)CCC(O)C(O)C[C@]3(O)CC(O)C(C(=O)O)C(C2)O3)C(O)C(N)C1O (stereo not given in full)	100	104	2	-5
CC1(C)CC(=O)C(=Cc2c[nH]c3ccccc23)C(=O)C1	103	101	-170	3
O=C(COc1ccccc1Cl)N1CCCc2ccccc21	105	108	-21	-9
CC(C)Cn1c(N2CCN(C(=O)Nc3ccc(Cl)cc3)CC2)nc2ccccc21	104	101	-20	-6
CCN(CC)C(=O)c1cc2sc3ccccc3c2s1	104	106	nt	-6
O=C(O)CC1(CC(=O)NCc2ccccn2)CCCCC1	103	109	-10	-17
O=C(O)c1c2c(nc3ccccc13)CSc1ccc(Cl)cc1-2	105	114	-15	27
O=C(Nc1ccc(C(F)(F)F)nc1OCc1ccccc1)c1ccccc1	101	103	nt	-1
Brc1ccc(CNc2ccc3cn[nH]c3c2)s1	58*	64*	-37	-14
COc1ccc(C(=O)CCC(=O)NC2=NCCS2)cc1	102	108	-2	1
CC1(CCc2ccc3c(c2)OCO3)NC(=O)c2ccccc2N1 (stereo not given)	102	103	-6	i
Cc1nc2cc3ccccc3cc2c(=O)[nH]1	95	99	-6	89
Cc1cccc2c(N=NC(=O)OC(C)(C)C)c(O)[nH]c12	103	103	-18	-4
COc1ccc(OCC(=O)Nc2ccncc2)cc1	103	99	nt	-1
CC(C)[C@@]1(NC(=O)[C@@H]2C[C@@H]3c4cccc5[nH]cc(c45)C[C@H]3N(C)C2)O[C@@]2(O)[C@@H]3CCCN3C(=O)[C@H](Cc3ccccc3)N2C1=O	99	101	-2	-6
N#CCSc1ncnc2ccccc12	112	131	-10	7
Cn1c(=O)n(C)c2cc(C=C3C(=O)c4ccccc4C3=O)ccc21	98	107	-41	-1
O=C(c1cccs1)N(c1ccc(F)cc1)c1nc2ccccc2s1	101	108	-38	68
O=C(CSc1nnc2c(n1)CCCC2)c1ccc(Cl)cc1	101	100	-40	22
O=C(O)c1[nH]c2ccc(Cl)cc2c1CC(=O)N1CCN(Cc2ccccc2)CC1	106	96	-19	35
CC1(C)CC(=O)C2=C(C1)OC(c1ccccc1)(C(C)(C)C)NC2=O (stereo not given)	105	108	nt	-9
Cc1cc(NS(=O)(=O)c2ccc(N3C(=O)C=CC3=O)cc2)no1	98	100	12	93*
COc1cccc(C(=O)NCc2ccc3[nH]c4c(c3c2)CCCC4)c1	101	104	-2	-4
O=C(NC1=NCCS1)[C@H](Cc1ccccc1)N1C(=O)c2ccccc2C1=O	103	109	-27	1
Nc1ccc(C(=O)Nc2ccc(O)c(-c3nc4ccccc4o3)c2)cc1	101	101	-14	-12
CCSc1nc2c(c(=O)n1Cc1ccco1)C1(CCCCC1)Cc1ccccc1-2	102	100	-1	-4
CCCCC/C=C\C/C=C\C/C=C\C/C=C\CCCC(=O)O	103&102	101&100	-2	-10
COC(=O)c1cnn2c(C)c(Cc3ccccc3)c(C)nc12	103	106	2	98
CCN(CC(=O)Nc1ccccc1C(=O)Nc1ccccc1)CC(=O)NC1CCS(=O)(=O)C1 (stereo not given)	nt	nt	-2	-11
c1ccc(CNC2=NCCCC2)cc1	102	104	-8	-3
O=C(COc1ccc(F)cc1)NCCN1CCOCC1	101	108	-18	nt
N#C/C(C(=O)Nc1ccc(SC(F)F)cc1)=c1/s/c(=C\c2ccco2)c(=O)n1-c1ccccc1	97	132	-9	0
O=C(NC1CC1)C1=COCCO1	101	103	nt	-9
O=C(O)CCC(=O)Nc1ccc(Oc2ncnc3cc(Cl)ccc23)nc1	103	106	-21	-11
COC(=O)c1ccc(CSc2cc(C)[nH]c(=O)n2)o1	101	109	12	19
O=C(O)CC1C(=O)N(c2ccccc2)C(=S)N1c1ccccc1 (stereo not given)	101	105	-9	3
N#CC(C#N)=C(N)/C(C#N)=C/c1c[nH]c2ccccc12	103	105	-174	nt
Cc1ccc(C(=O)OCC(=O)c2cccc(Cl)c2)s1	102	100	nt	-7
Cc1cc(C)c(-n2nnnc2SCC(=O)c2cc3ccccc3o2)c(C)c1	102	104	-13	-4
Cc1ccc(N2C(=O)C(C)N=C2N2CCN(c3ccccc3)CC2)cc1 (stereo not given)	100	101	8	9
CCCn1c2ccc(CC)cc2c2nc3ccccc3nc21	95	106	-57	4
CC(Oc1ccccc1)C(=O)NC1CCCC1 (stereo not given)	107	113	-3	nt
COC(=O)C1OC=C(C)C2CN3CCC4c5ccccc5NC4CC3CC21 (stereo not given)	100	103	-29	-3

Additional results follow:
SMILES	PV pol inh	PV pol inh intensity	Mtb MenB inh	MbtI inh
O=C(Nn1cnc2c(cnn2-c2ccccc2)c1=O)C1CCCC1	98	100	-22	-1
O=C(O)Cc1cn(-c2ccccc2)nc1-c1cccs1	99	100	nt	-33
CCCn1nnnc1SCC(=O)c1ccccc1	103	102	31*	3
COCCNS(=O)(=O)c1c(C)nc2sccn2c1=O	102	103	5	-4
O=S(=O)(Cc1ccccc1)/C1=C(\N2CCOCC2)CCCCCC1	104	100	9	2
Cc1c(C)n(C(=O)CSC(=S)N2CCOCC2)c2ccccc12	102	100	-37	-6
COc1ccc(NS(=O)(=O)c2ccc3oc(SC/C(O)=C(\C#N)c4nc5ccccc5s4)nc3c2)cc1	106	116	-24	42
N#Cc1nc(-c2cccs2)oc1N1CCCC1	100	104	7	i
O=C(CN1CCCCC1)N1CCCC(c2nc3sc4c(c3c(=O)[nH]2)CCCC4)C1 (stereo not given)	101	102	3	3
CCNC(=O)c1cc(S(=O)(=O)N2CCCCC2)ccc1C	103	98	nt	5
CC1CCN(CC(=O)Nc2sccc2C#N)CC1	106	116	4	-1
Cc1ccc(C)c(C(=O)COC(=O)c2n[nH]c3ccccc23)c1	103	98	-18	4
COC(=O)c1[nH]c2ccccc2c1C(Nc1ccc(C(=O)O)cc1)c1ccccc1 (stereo not given)	107	109	-21	7
O=c1c(-c2ccccc2)coc2cc(OCc3ccccc3F)ccc12	105	100	7	-3
O=C1Nc2cc(C(=O)N3CCN(c4ccccn4)CC3)ccc2S/C1=C\c1ccccc1	102	98	-22	11
CC(C)(CC(=O)O)CC(=O)Nc1ccc(F)cc1	104	98	-3	-12
CN(Cc1ccccc1)C(=O)c1cccc(-c2nnc(-c3ccccc3)o2)c1	102	101	-11	-10
c1ccc(NC2=NCCCCS2)cc1	104	103	-3	-1
Oc1c(C(c2ccc(Cl)cc2)N2CCOCC2)cc(Cl)c2cccnc12 (stereo not given)	103	111	nt	35
N#Cc1ccc(NC(=O)CCC(=O)c2cccs2)cc1	83*	93*	-10	0
CC1CC1c1ccc(CCC(=O)Nc2ncc(Cc3cccc(Cl)c3)s2)o1 (stereo not given)	104	105	-23	10
O=S(=O)(c1ccc(F)cc1)c1ccc(F)cc1	102	102	nt	-2
CCOc1ccc(N(CC)c2nc(-c3cc(OC)ccc3OC)no2)cc1	100	102	-8	0
CC1CCCN(C(=S)NC2CCCC2)C1 (stereo not given)	102	102	-7	0
COc1cc2[nH]c(=O)n(CCCC(=O)N3CCN(c4cccc(Cl)c4)CC3)c(=O)c2cc1OC	102	104	-12	-24
O=C(CS(=O)(=O)Cc1ccccc1)Nc1nccs1	107	114	0	nt
CN1CCCN(C(=O)c2ccccc2OCc2ccccc2)CC1	102	107	nt	-12
CC(C)CC(=O)OCc1ccc(Cl)c(Cl)c1	102	108	nt	-7
O=C(C1=C(c2ccccc2)C(=O)c2ccccc2C1=O)c1ccccc1	101	103	7	1
CCOC(=O)N1CCN(C(=S)Nc2ccc3nsnc3c2)CC1	97	99	-24	-1
O=C(c1ccccc1)N1C(=S)C(c2ccccc2)=NC12CCCC2	99	104	-1	-2
O=C(OCC(=O)c1cccs1)c1cccc(C(=O)OCC(=O)c2cccs2)n1	101	101	-4	-3
COC(=O)CC1=C(C(=O)OC)C(c2ccccc2)NC(=O)N1 (stereo not given)	98	97	-7	nt
COc1ccc(OC)c(NC(=O)CSc2nnc(CNc3ccc(C)cc3C)n2CC2CCCO2)c1 (stereo not given)	103	104	-21	8
COC(=O)C1=CN(C(C)C)C=C(C(=O)OC)C1c1ccccc1Cl	102	102	1	-131
S=c1[nH]nc(-c2ccc(Cl)cc2)n1C1CCCCC1	102	98	-14	9
CC(C)n1c(O)c(N=NC(=O)c2ccc3c(c2)OCO3)c2ccccc21	106	110	-14	-7
C=CCn1c(C(NC(=O)c2ccc(Cl)cc2Cl)C(C)C)n[nH]c1=S (stereo not given)	101	105	-53	-3
O=C(O)CON=C1C2CC3CC(C2)CC1C3	78*	86*	10	0
CCOc1cc(N2CCOCC2)c(OCC)cc1NC(=O)Cc1c[nH]c2ccccc12	103	95	-39	-10
CC(C)C(NC(=O)Nc1ccc(Cl)cc1)C(C)C	100	102	-13	-7

Full records, looked up by structure. Screens in order: PV pol inh, PV pol inh intensity, Mtb MenB inh, MbtI inh
`CCOc1cc(N2CCOCC2)c(OCC)cc1NC(=O)Cc1c[nH]c2ccccc12` is listed with 103, 95, -39, -10
`S=c1[nH]nc(-c2ccc(Cl)cc2)n1C1CCCCC1` is listed with 102, 98, -14, 9
`COc1ccc(OC)c(NC(=O)CSc2nnc(CNc3ccc(C)cc3C)n2CC2CCCO2)c1` (stereo not given) is listed with 103, 104, -21, 8
`CC(C)n1c(O)c(N=NC(=O)c2ccc3c(c2)OCO3)c2ccccc21` is listed with 106, 110, -14, -7
`O=C(OCC(=O)c1cccs1)c1cccc(C(=O)OCC(=O)c2cccs2)n1` is listed with 101, 101, -4, -3

Looked up by compound from above (3):
SMILES	PV pol inh	PV pol inh intensity	Mtb MenB inh	MbtI inh
CCCn1c(=O)[nH]c(=O)c2c(C(=O)O)cc(-c3ccccc3)nc21	105	107	-2	101
COc1cccc(C(=O)NCc2ccc3[nH]c4c(c3c2)CCCC4)c1	101	104	-2	-4
Nc1ccc(C(=O)Nc2ccc(O)c(-c3nc4ccccc4o3)c2)cc1	101	101	-14	-12

The order is random. About 1.9% of those tested had a hit in this group.
